Ecoli rRNA inh: inhibits bacterial ribosomal RNA function over humanized ribosomes | GFP signal change (wild-type ribosome), % (test concentration not listed) | E. coli WT GFP vs humanized-ribosome RFP mutants, fluorescence, 24 h; stronger effect = lower value; DMSO median 0, no signal -100 | 1.6% of 350,000 active;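 active = significant combined selectivity score with lowered wild-type GFP, culture density cut under 30%, mutant RFP and density less affected; inactive = any of these conditions unmet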; note: one replicate is shown; some compounds called inactive have numbers as strong as hits
Ecoli rRNA inh OD600: also measured in Ecoli rRNA inh; calls as there; OD600 change, %; measured here: OD600 growth;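 optical density of the mix in the first replicate; 0 = DMSO median and -100 = no signal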
Ecoli rRNA inh RFP: recorded beside Ecoli rRNA inh, whose call it bears; RFP signal change, %; measured here: RFP humanized mutant strains;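 first replicate; 0 = DMSO median and -100 = no signal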
* = called active by the depositor; & = joins results of further samples. These rows are one share of the data. The share of hits here may be higher or lower than overall.

| SMILES | Ecoli rRNA inh | Ecoli rRNA inh OD600 | Ecoli rRNA inh RFP |
| --- | --- | --- | --- |
| CCOC(=O)c1c(NC(=S)SC)sc(C(=O)N2CCc3ccccc3C2)c1C | 5.5 | 4.8 | 0.2 |
| CCCC(=O)N1CC2(CN(C(=O)CC3CC3)C2)c2c(n(C)c3cc(OC)ccc23)[C@H]1CO | -1.7 | 6.4 | -1.2 |
| COCC(=O)N1CCC2(CC1)CN(Cc1nccs1)[C@@H](CO)c1c2c2ccc(OC)cc2n1C | -0.5 | -7.8 | 1.0 |
| O=C(C[C@@H]1C[C@H]2c3cc(NC(=O)Nc4ccccc4F)ccc3O[C@H]2[C@H](CO)O1)NCc1ccc(Oc2ccccc2)cc1 | -0.5 | -0.5 | 3.8 |
| CCCNC(=O)N[C@@H]1CC[C@H](CC(=O)NCCc2ccccc2)O[C@@H]1CO | 4.1 | 9.5 | 0.0 |
| O=C(C[C@@H]1C[C@H]2c3cc(NC(=O)Nc4ccccc4)ccc3O[C@H]2[C@H](CO)O1)NC1CCCCC1 | -10.3 | -27.9 | 4.2 |
| C[C@H]1CCCCO[C@H](CN(C)C(=O)Nc2ccc3c(c2)OCO3)[C@@H](C)CN([C@@H](C)CO)C(=O)c2cc(NS(=O)(=O)c3cn(C)cn3)ccc2O1 | 1.4 | 9.2 | 0.8 |
| Cc1noc(C)c1NC(=O)N(C)C[C@@H]1OCCCC[C@@H](C)Oc2ccc(NC(=O)NC(C)C)cc2C(=O)N([C@H](C)CO)C[C@@H]1C | 1.0 | -1.6 | -2.6 |
| O=C(NC1CCCC1)N[C@@H]1CC[C@@H](CC(=O)N2CCOCC2)O[C@@H]1CO | 0.4&8.0 | 6.0&8.7 | -0.4&-3.6 |
| C[C@H](O)C#Cc1cnc2c(c1)C(=O)N([C@H](C)CO)C[C@@H](C)[C@H](CN(C)C(=O)Cc1ccccn1)O2 | 1.5 | 14.3 | -0.3 |
| CN1C(=O)c2cc(NC(=O)c3ccccc3)ccc2OC[C@@H]2O[C@@H](CC(=O)O)CC[C@H]21 | -0.7 | 4.9 | -2.8 |
| CN1C(=O)c2cc(NS(=O)(=O)c3ccc(F)cc3)ccc2OC[C@@H]2O[C@@H](CC(=O)NCC(F)(F)F)CC[C@H]21 | -0.3 | -5.6 | 1.8 |
| C[C@@H]1CCCCO[C@@H](CN(C)Cc2ccc(C(F)(F)F)cc2)[C@H](C)CN([C@@H](C)CO)C(=O)c2cc(NC(=O)CCC(F)(F)F)ccc2O1 | 4.6 | 3.6 | 8.8 |
| Cc1cc(C(=O)Nc2cccc3c2O[C@@H](CN(C)S(=O)(=O)c2cccs2)[C@H](C)CN([C@@H](C)CO)C3=O)n(C)n1 | 1.2 | -3.5 | -0.7 |
| CN(C)C(=O)C[C@@H]1CC[C@@H]2[C@H](COc3ccc(NC(=O)c4cnccn4)cc3C(=O)N2C)O1 | 7.4 | 9.5 | 8.3 |
| COc1ccc(C#Cc2c(-c3ccccc3OC)oc3ccccc23)cc1 | -1.6 | -0.2 | -1.5 |
| CCS(=O)(=O)N1CCCCN2[C@@H](CO)[C@H](c3ccc(C#CC(C)(C)O)cc3)[C@@H]2C1 | 3.0 | 10.3 | -2.7 |
| O=C(C[C@H]1CC[C@@H]2[C@H](COC[C@H](O)CN2Cc2cc(F)cc(F)c2)O1)NC1CCCC1 | -5.3 | -5.0 | -2.1 |
| C[C@H](CO)N1C[C@H](C)[C@H](CN(C)C(=O)Nc2ccc(F)cc2)OCCCC[C@H](C)Oc2ccc(NC(=O)Nc3ccc4c(c3)OCO4)cc2C1=O | 1.1 | 4.2 | -1.8 |
| COc1cccc(S(=O)(=O)Nc2ccc3c(c2)OC[C@H](C)NC[C@H](C)[C@H](OC)CN(C)C3=O)c1 | 0.7 | -2.4 | -1.1 |
| COc1cccc(NC(=O)N2C[C@H](O)COC[C@H]3O[C@H](CC(=O)NC4Cc5ccccc5C4)CC[C@@H]32)c1 | 2.4 | 4.2 | -3.4 |
| CCC(=O)N1CC(=O)N2[C@H](CO)[C@H](c3ccc(C#Cc4cccc(OC)c4)cc3)[C@H]2C1 | 0.8 | -1.3 | -1.4 |
| COCC(=O)N1C[C@H](C)[C@H](OC)CN(C)C(=O)c2cc(NC(=O)c3cc(C)on3)ccc2OC[C@H]1C | 2.0 | 1.4 | -0.2 |
| CC(C)NC(=O)N1CC[C@@H]2[C@H]1c1cc(-c3ccc(F)cc3)ccc1N(C)[C@H]2CO | -12.8 | -19.6 | -5.2 |
| O=C(Nc1ccc2c(c1)Cc1cc([N+](=O)[O-])ccc1-2)C(F)(F)F | 11.6 | 1.0 | -2.6 |
| COCC#Cc1ccc2c(c1)O[C@@H](CN(C)S(=O)(=O)c1ccc(F)cc1)[C@@H](C)CN([C@H](C)CO)S2(=O)=O | -1.8 | -7.7 | 2.8 |
| O=C1Nc2ccccc2-c2nnnn2C1N1CCC(Cc2ccccc2)CC1 (stereo unspecified) | 10.6 | 10.5 | 3.6 |
| COc1ccc2c(C)cc(=O)oc2c1OCC(O)CN1CCOCC1 (stereo unspecified) | -2.5 | 1.2 | -2.5 |
| CCNC(=O)C[C@@H]1CC[C@@H]2[C@H](COc3ccc(NC(=O)c4ccc(C(F)(F)F)cc4)cc3C(=O)N2C)O1 | -3.4 | -3.3 | 0.0 |
| Cc1cccc(C)c1NC(=O)C(C1CC1)n1c(-c2ccc(=O)[nH]c2)nc2ccccc21 (stereo unspecified) | 2.7 | 8.7 | -5.0 |
| C[C@@H]1CN([C@@H](C)CO)C(=O)c2cc(NC(=O)c3ccncc3)ccc2O[C@@H](C)CCCCO[C@H]1CN(C)C(=O)C1CCCCC1 | -1.6 | -4.1 | 1.3 |
| CN(C)C(=O)c1cccc(-c2ccc(C3[C@@H]4CN(S(=O)(=O)Cc5ccccc5)C[C@H]3N4)cc2)c1 (stereo partly specified) | 2.9 | 1.0 | -7.1 |
| O=C(C[C@@H]1CC[C@@H]2NC[C@@H](O)COC[C@H]2O1)NCCN1CCCCC1 | 5.7 | 16.5 | -1.4 |
| Cc1noc(C)c1S(=O)(=O)Nc1ccc2c(c1)C(=O)N([C@@H](C)CO)C[C@H](C)[C@H](CN(C)C)OCCCC[C@H](C)O2 | 1.2 | -0.3 | -2.5 |
| O=C(CN1CCOCC1)NCC[C@H]1CC[C@H](NC(=O)Nc2ccc(F)cc2)[C@H](CO)O1 | 4.4 | -4.2 | 1.0 |
| CC(C)NC(=O)N(C)C[C@H]1OCc2ccccc2-c2c(n(C)c3ccccc23)C(=O)N([C@H](C)CO)C[C@H]1C | -1.7 | -6.2 | -4.1 |
| C[C@@H]1CN([C@@H](C)CO)C(=O)c2ccccc2-c2ccccc2CO[C@@H]1CN(C)Cc1cccc(C(F)(F)F)c1 | -3.9 | -22.3 | 7.5 |
| C[C@@H]1CN([C@H](C)CO)C(=O)c2cccc(NS(=O)(=O)c3ccc(Cl)cc3)c2O[C@@H]1CN(C)S(C)(=O)=O | -14.2 | -23.1 | 6.4 |
| C[C@H](CO)N1C[C@H](C)[C@@H](CN(C)S(=O)(=O)c2ccccc2)OCCCC[C@H](C)Oc2ccc(NC(=O)c3ccncc3)cc2C1=O | -5.3 | 1.6 | 0.5 |
| CN1[C@@H]2c3ccc(-c4ccc(F)cc4)c(=O)n3C[C@H]1[C@H](CO)[C@H]2C(=O)NC1CCCCC1 | 0.0 | -2.8 | -0.6 |
| Cc1noc(C)c1S(=O)(=O)Nc1cccc2c1O[C@H](CN(C)Cc1ccc(C(F)(F)F)cc1)[C@H](C)CN([C@H](C)CO)C2=O | -2.2 | -3.8 | 3.6 |
| CCOC(=O)C1=C[C@@H](C(C)(C)C)N(S(=O)(=O)c2ccc([N+](=O)[O-])cc2)[C@H]1c1ccccc1Cl | 5.9 | 16.6 | 0.4 |
| CCCNC(=O)C[C@@H]1C[C@H]2c3cc(N(C)C)ccc3O[C@H]2[C@@H](CO)O1 | -0.6 | -2.6 | 2.2 |
| C[C@H]1CN([C@@H](C)CO)C(=O)c2c(c3ccccc3n2C)-c2ccccc2CO[C@@H]1CN(C)C(=O)c1ccccc1 | -0.5 | -0.7 | 1.4 |
| C[C@H]1CN([C@@H](C)CO)C(=O)Cc2cc(NC(=O)Nc3ccc(F)cc3)ccc2O[C@@H]1CN(C)Cc1ccc(Oc2ccccc2)cc1 | 7.3 | 11.7 | -1.0 |

Arranged by value in Ecoli rRNA inh OD600 (largest number first): five of the compounds above.
| SMILES | Ecoli rRNA inh | Ecoli rRNA inh OD600 | Ecoli rRNA inh RFP |
| --- | --- | --- | --- |
| C[C@H]1CN([C@@H](C)CO)C(=O)Cc2cc(NC(=O)Nc3ccc(F)cc3)ccc2O[C@@H]1CN(C)Cc1ccc(Oc2ccccc2)cc1 | 7.3 | 11.7 | -1.0 |
| C[C@H](CO)N1C[C@H](C)[C@@H](CN(C)S(=O)(=O)c2ccccc2)OCCCC[C@H](C)Oc2ccc(NC(=O)c3ccncc3)cc2C1=O | -5.3 | 1.6 | 0.5 |
| CCCNC(=O)C[C@@H]1C[C@H]2c3cc(N(C)C)ccc3O[C@H]2[C@@H](CO)O1 | -0.6 | -2.6 | 2.2 |
| O=C(CN1CCOCC1)NCC[C@H]1CC[C@H](NC(=O)Nc2ccc(F)cc2)[C@H](CO)O1 | 4.4 | -4.2 | 1.0 |
| C[C@@H]1CN([C@H](C)CO)C(=O)c2cccc(NS(=O)(=O)c3ccc(Cl)cc3)c2O[C@@H]1CN(C)S(C)(=O)=O | -14.2 | -23.1 | 6.4 |

(cont.)
compound | Ecoli rRNA inh | Ecoli rRNA inh OD600 | Ecoli rRNA inh RFP
COCC(=O)Nc1ccc2c(c1)[C@H]1C[C@@H](CC(=O)NCc3ccccc3OC)O[C@H](CO)[C@H]1O2 | -1.0 | -6.5 | -5.1
O=C(C1CCOCC1)N1CC(=O)N2[C@H](C1)[C@@H](c1ccc(C#CC3CCCCC3)cc1)[C@@H]2CO | 3.7 | 4.9 | 4.0
COC(=O)[C@]1(Sc2ccc(C)cc2)CC(=O)N[C@@H]1c1ccco1 | -2.1 | 2.9 | 1.1
C[C@@H]1CN([C@@H](C)CO)C(=O)c2cc(C#CC3CCCCC3)cnc2O[C@@H]1CN(C)C(=O)Nc1ccccc1 | 2.5 | -4.4 | 6.9
C[C@@H]1CN([C@H](C)CO)C(=O)c2cccc(N(C)C)c2O[C@@H]1CN(C)Cc1ccc(Cl)c(Cl)c1 | -3.3 | -6.8 | 1.3
C/C=C/c1ccc2c(c1)O[C@@H](CN(C)C(=O)c1ccc(F)cc1)[C@H](C)CN([C@@H](C)CO)S2(=O)=O | -8.2 | -24.2 | -0.4
O=C(NCC[C@H]1CC[C@@H](NS(=O)(=O)c2cccc(F)c2)[C@@H](CO)O1)C1CC1 | -0.7 | 3.9 | -2.0
O=C(C[C@H]1CC[C@@H]2[C@H](COC[C@@H](O)CN2Cc2ccc(Oc3ccccc3)cc2)O1)N1CCCCC1 | -19.5 | -61.0 | 3.3
C[C@H](CO)N1C[C@H](C)[C@H](CN(C)Cc2ccc(C(F)(F)F)cc2)Oc2ccc(NS(=O)(=O)c3ccc(F)cc3)cc2C1=O | 4.9 | -0.2 | 0.7
C[C@@H]1CCCCO[C@H](CN(C)C(=O)C2CCCCC2)[C@@H](C)CN([C@@H](C)CO)C(=O)c2cc(NC(=O)NC3CCCCC3)ccc2O1 | -1.6 | -6.7 | -1.0
O=C(Nc1ccccc1F)N1C[C@@H]2[C@H](c3ccccc31)[C@@H](CO)N2C(=O)Cc1ccccc1 | -43.6* | -34.8* | -2.1*
CC(=O)NC[C@H]1[C@H](c2ccc(-c3cccc(F)c3)cc2)[C@H](CO)N1C(C)=O | 0.6 | -0.3 | 0.2
N#Cc1cccc(C(=O)C(=O)N2CCCN(Cc3ccc(F)cc3)CC2)c1 | -0.4 | -4.7 | 3.4
CO[C@@H]1CN(C)C(=O)c2cc(NC(C)=O)ccc2OC[C@H](C)N(C(=O)CN(C)C)C[C@@H]1C | 2.0 | 2.3 | 0.3
O=S1(=O)CC(N2CCSCC2)CN1Cc1cn(Cc2cccc(Cl)c2)nn1 (stereo unspecified) | 4.8 | -9.4 | 3.5
CCC(=O)N1[C@@H](CO)[C@@H](c2ccc(-c3ccc(F)cc3)cc2)C12CN(C(C)=O)C2 | -1.6 | -5.1 | 0.9
O=c1[nH]cc(Cc2ccccc2)c(=O)[nH]1 | 2.9 | 5.2 | -3.4
O=C(N/C(=C/c1cccc(Br)c1)C(=O)N1CCOCC1)c1ccco1 | 14.2 | 16.4 | -0.4
OC[C@H]1[C@@H](c2ccc(C#CC3(O)CCCC3)cc2)[C@@H]2CN(Cc3cncnc3)CCCCN12 | 3.8 | 3.6 | -0.7
COCC(=O)Nc1ccc2c(c1)[C@@H]1C[C@H](CC(=O)N3CCc4ccccc4C3)O[C@@H](CO)[C@@H]1O2 | 1.6 | 1.8 | 0.4
C[C@@H]1CCCCO[C@@H](CN(C)C(=O)Nc2ccc3c(c2)OCO3)[C@H](C)CN([C@@H](C)CO)C(=O)c2cc(NS(=O)(=O)c3ccc(F)cc3)ccc2O1 | 0.8 | -8.3 | -2.7
O=C(NC1CCCC1)N1[C@@H]2CNC[C@H]1C2c1ccc(-c2cccnc2)cc1 (stereo partly specified) | 6.2&4.0 | 8.0&-3.6 | -2.0&-1.5
COc1ccc(S(=O)(=O)Nc2ccc3c(c2)CC(=O)N([C@@H](C)CO)C[C@H](C)[C@H](CN(C)CC2CCCCC2)O3)cc1 | 1.2 | -13.1 | 1.6
CCc1nc2ccc(C(=O)Nc3cccc(OCC(=O)N(C)C)c3)cn2c1N(C=O)Cc1ccc(OC)cc1 | 0.5 | -2.5 | 0.4
CN(C)Cc1cn(CC[C@H]2CC[C@H](NC(=O)Nc3ccccc3F)[C@H](CO)O2)nn1 | 2.6 | 0.6 | -3.1
CC(C)NC(=O)Nc1ccc2c(c1)CC(=O)N([C@@H](C)CO)C[C@@H](C)[C@H](CN(C)CC1CC1)O2 | 5.0 | 7.8 | -2.1
CCCNC(=O)N1CC(=O)N2[C@H](CO)[C@H](c3ccc(-c4ccc(C)cc4)cc3)[C@@H]2C1 | -1.7 | -2.0 | 1.7

Screening data as filed in PubChem BioAssay.
